KCNQ2 block: KCNQ2 channel blockers in CHO-K1 cells – cell-based, FluxOR thallium flux, B-score, primary screen (AID 2156). O88943. 20 min; hits give low values; only compounds with negative scores are shown here; some inactives read as strong as hits. B-score at 10 µM. 310,000 compounds, 1.1% hits;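 active means fluorescence ratio B-score at most minus 3 library SDs, with starting brightness B-score within 2 library SDs, cut at about -5.5 in these data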
Target sequence (O88943 whole entry, looked up): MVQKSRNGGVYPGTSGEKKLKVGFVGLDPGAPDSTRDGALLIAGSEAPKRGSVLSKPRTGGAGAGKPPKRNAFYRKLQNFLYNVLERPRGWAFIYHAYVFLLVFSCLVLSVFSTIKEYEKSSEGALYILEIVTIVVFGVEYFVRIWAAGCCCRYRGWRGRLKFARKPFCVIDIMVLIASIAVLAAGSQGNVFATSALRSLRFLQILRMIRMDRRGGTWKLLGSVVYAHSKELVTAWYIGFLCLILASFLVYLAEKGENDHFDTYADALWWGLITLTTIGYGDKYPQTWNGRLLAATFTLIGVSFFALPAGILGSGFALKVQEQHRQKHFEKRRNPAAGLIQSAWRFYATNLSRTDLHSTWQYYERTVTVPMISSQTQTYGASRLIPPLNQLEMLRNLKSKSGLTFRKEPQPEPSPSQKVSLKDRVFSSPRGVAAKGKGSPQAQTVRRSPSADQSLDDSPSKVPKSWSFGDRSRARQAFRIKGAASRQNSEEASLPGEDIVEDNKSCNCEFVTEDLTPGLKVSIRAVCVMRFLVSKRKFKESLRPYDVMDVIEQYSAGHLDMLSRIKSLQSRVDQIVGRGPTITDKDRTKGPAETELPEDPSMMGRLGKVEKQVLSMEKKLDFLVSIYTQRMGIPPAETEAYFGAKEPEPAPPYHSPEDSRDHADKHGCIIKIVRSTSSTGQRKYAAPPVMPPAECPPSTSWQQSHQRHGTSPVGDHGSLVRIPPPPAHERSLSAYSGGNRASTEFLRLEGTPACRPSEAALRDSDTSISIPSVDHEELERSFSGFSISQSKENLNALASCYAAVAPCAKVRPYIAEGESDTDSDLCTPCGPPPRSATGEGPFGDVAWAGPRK
KCNQ2 block baseline: second read-out of KCNQ2 block, no call of its own (marks repeat the call); B-score; measured here: initial fluorescence intensity artifact check;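 brightness before thallium and not channel activity; 0 = typical well and far values either way flag optical interference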
* hit, by the source's call. The list is partial (hit frequency here may not be typical).

`O=C(COc1ccc2ccc(=O)oc2c1)Nc1ccc(N2CCOCC2)cc1` gave KCNQ2 block inactive and KCNQ2 block baseline -0.23.
For Cc1ccc(S(=O)(=O)N2CCN(C)CC2)c(C)c1 the results were KCNQ2 block inactive and KCNQ2 block baseline -0.43.
For CCc1ccc(OCCOCC(O)CN2CCN(Cc3ccc(Cl)cc3)CC2)cc1 (stereo not drawn) the results were KCNQ2 block inactive and KCNQ2 block baseline -0.89.
`COc1ccc(Oc2nc(C)cc(C)c2S(=O)(=O)c2ccc(C)cc2)cc1` gave KCNQ2 block inactive and KCNQ2 block baseline -2.14.
For Cc1cccc(C)c1NC(=O)N1CCC(c2nc3ccccc3o2)CC1 the results were KCNQ2 block inactive and KCNQ2 block baseline -0.08.
`CCCCN(CCCNC(=O)C1CCCN(S(=O)(=O)CCC)C1)Cc1ccccc1` (stereo not drawn) gave KCNQ2 block inactive and KCNQ2 block baseline 1.5.
`Cc1cccc(/C(N)=N/OC(=O)c2cccc3ccccc23)c1` gave KCNQ2 block -5.68* and KCNQ2 block baseline -2.44*.
`COc1ccc(Cl)cc1NC(=O)CN(C)C(=O)C12CC3CC(CC(Cl)(C3)C1)C2` gave KCNQ2 block inactive and KCNQ2 block baseline 1.37.
For COc1ccc(C(=O)Nc2c(N)nc(SCC(=O)Nc3ccc(NC(C)=O)cc3)[nH]c2=O)cc1OC the results were KCNQ2 block inactive and KCNQ2 block baseline 2.48.
Cc1nnc(NC(=O)CCC(=O)NCc2ccco2)s1 was read as KCNQ2 block inactive and KCNQ2 block baseline 0.29.
Cc1cc2c(c(=O)o1)C(C(C)C)C(C#N)=C(N)O2 (stereo not drawn) was read as KCNQ2 block inactive and KCNQ2 block baseline 1.07.
For CN1CCN(C2=C(Cl)C(=O)N(c3ccc(Cl)cc3)C2=O)CC1 the results were KCNQ2 block inactive and KCNQ2 block baseline -0.15.
`CCOC(=O)N1CCN(c2c(NCCc3ccc(OC)c(OC)c3)c(=O)c2=O)CC1` gave KCNQ2 block inactive and KCNQ2 block baseline 0.61.
Cc1nc2ccc(C(=O)N3CCCC(CO)(Cc4ccc(F)cc4F)C3)cc2nc1C (stereo not drawn) was read as KCNQ2 block inactive and KCNQ2 block baseline -1.45.
CCN(CC)C(=O)c1csc(Nc2ccc(C)cc2)n1 was read as KCNQ2 block inactive and KCNQ2 block baseline 6.29.
C=CCN=c1sc(C(=O)OC)cc(=O)n1CC=C was read as KCNQ2 block inactive and KCNQ2 block baseline -0.29.
CC(=O)n1nc(-c2ccccc2)cc1-c1ccccc1 was read as KCNQ2 block inactive and KCNQ2 block baseline 1.45.
Cc1[nH]c(=O)[nH]c(=O)c1S(=O)(=O)N1CCC(C(=O)N2CCN(Cc3ccccc3)CC2)CC1 was read as KCNQ2 block inactive and KCNQ2 block baseline 1.15.
Screening COc1cccc(/C=N/NC(=O)CN2CC(c3ccccc3)CC2=O)c1O (stereo not drawn) returned KCNQ2 block inactive and KCNQ2 block baseline 0.6.
Screening COc1ccc2[nH]cc(C(=O)CN3CC(C)CC(C)C3)c2c1 (stereo not drawn) returned KCNQ2 block inactive and KCNQ2 block baseline 0.1.
O=C(NCC(=O)N1CCN(S(=O)(=O)c2ccccc2)CC1)c1ccc2ccccc2c1 was read as KCNQ2 block inactive and KCNQ2 block baseline -1.88.
For C=CCN(C(=O)CSc1nc2ccsc2c(=O)n1Cc1ccccn1)c1ccccc1 the results were KCNQ2 block inactive and KCNQ2 block baseline -1.69.
COc1cccc(NC(=S)/C(=C(\[O-])c2ccc(OC(F)F)cc2)[n+]2ccccc2)c1 was read as KCNQ2 block inactive and KCNQ2 block baseline -0.05.
For O=C(Nc1cccc(Cl)c1N1CCOCC1)c1ccc2c(c1)OCCO2 the results were KCNQ2 block -6.48* and KCNQ2 block baseline -0.89*.
COc1ccc(CCNC(=O)c2nnc(Cc3c(F)cccc3Cl)o2)cc1OC was read as KCNQ2 block inactive and KCNQ2 block baseline -0.48.
COc1ccc(N(C(=O)c2snc(C(N)=O)c2N)C(C(=O)NC2CCCC2)c2ccc3ncccc3c2)cc1 (stereo not drawn) was read as KCNQ2 block inactive and KCNQ2 block baseline 1.12.
For CCOC(=O)c1cnc2ccc(C)cc2c1Sc1ccccc1 the results were KCNQ2 block -7.11* and KCNQ2 block baseline 1.07*.
Screening CCOC(=O)NC1c2ccccc2Oc2ccccc21 returned KCNQ2 block inactive and KCNQ2 block baseline 0.34.
`C=CCNC(=O)CN1C(=O)c2cccc3cccc1c23` gave KCNQ2 block inactive and KCNQ2 block baseline 0.01.
For CCCc1ccc(OCCNC(=O)c2ccccc2Br)cc1 the results were KCNQ2 block inactive and KCNQ2 block baseline -2.27.
For Cc1ccc(N2CCN(C(=O)CN3C(=O)c4ccccc4C3=O)CC2)cc1 the results were KCNQ2 block inactive and KCNQ2 block baseline -0.05.
`Cc1onc(-c2ccccc2)c1C(=O)Nc1sccc1C#N` gave KCNQ2 block inactive and KCNQ2 block baseline -0.42.
Screening COc1cc2c(cc1OC)CN(C(=O)CC1CC3CCC1C3)CC2 (stereo not drawn) returned KCNQ2 block inactive and KCNQ2 block baseline 0.62.
Screening O=C(CCn1c(=S)oc2ccccc21)N1CCCCC1 returned KCNQ2 block inactive and KCNQ2 block baseline 0.76.
For COc1ccc(C)cc1Nc1n[n+](-c2ccccc2)c(-c2cc([N+](=O)[O-])cc(OC)c2O)s1 the results were KCNQ2 block inactive and KCNQ2 block baseline 3.04.
`CCOC(=O)/C(C(N)=NC(C)C)=C(\O)c1ccccc1` gave KCNQ2 block inactive and KCNQ2 block baseline -0.25.
Cc1ccc(-c2ccc([C@H]3[C@H]4C=CC[C@@H](C)[C@@H]4C(=O)N3Cc3ccccc3)c(F)c2)cc1 was read as KCNQ2 block inactive and KCNQ2 block baseline 0.76.
`CC1CCCCN1CCCNc1c(C=O)c(=O)[nH]c2ccccc12` (stereo not drawn) gave KCNQ2 block inactive and KCNQ2 block baseline -0.53.
Screening Cc1ccccc1-c1nc(CN2CCC(C(=O)NCCN3CCOCC3)CC2)c(C)o1 returned KCNQ2 block inactive and KCNQ2 block baseline 0.35.
`C#CC(CO)N(CCN(Cc1ccccc1)C(C#C)CO)Cc1ccccc1` (stereo not drawn) gave KCNQ2 block inactive and KCNQ2 block baseline 0.29.
`CCC(=O)c1cc(F)c(N2CCN(S(=O)(=O)c3ccccc3)CC2)cc1C` gave KCNQ2 block inactive and KCNQ2 block baseline -1.12.
`C/C(=N\NC(=S)NCc1ccccc1)c1ccc(C#N)cc1` gave KCNQ2 block inactive and KCNQ2 block baseline -0.08.
`COCC(C)n1c(SCc2ccc(C(=O)OC)o2)nc2ccccc2c1=O` (stereo not drawn) gave KCNQ2 block inactive and KCNQ2 block baseline 0.77.
`Nc1nc(Cl)cc(N2CCOCC2)n1` gave KCNQ2 block inactive and KCNQ2 block baseline -0.11.
Screening CON(c1nc(Cl)nc(N(C)C)n1)S(=O)(=O)c1ccc(C)cc1 returned KCNQ2 block inactive and KCNQ2 block baseline 0.14.
`CCOC(=O)c1c(S(=O)(=O)NCC(=O)Nc2cccc(C)c2C)c(C)n(C)c1C` gave KCNQ2 block inactive and KCNQ2 block baseline -0.04.
Screening C=CCN1C(=O)C(CC(=O)NCC)SC1=Nc1ccccc1CC (stereo not drawn) returned KCNQ2 block inactive and KCNQ2 block baseline 1.56.
COc1ccc(O)c(C(=O)c2cnc3c(c2)CN(C)C(=O)N3)c1 was read as KCNQ2 block inactive and KCNQ2 block baseline -1.77.
O=C1/C(=C/c2cccs2)COc2ccccc21 was read as KCNQ2 block inactive and KCNQ2 block baseline 0.21.
`CCOc1ccc(NC(=O)C2CC(=O)N(CC)C(=Nc3ccc4c(c3)OCO4)S2)cc1` (stereo not drawn) gave KCNQ2 block inactive and KCNQ2 block baseline 0.59.
For CCOC(=O)c1ccccc1NC(=O)COC the results were KCNQ2 block inactive and KCNQ2 block baseline 0.91.
Screening N#Cc1ccc(OCc2noc(-c3ccsc3)n2)cc1 returned KCNQ2 block inactive and KCNQ2 block baseline 0.49.
For O=C(NNC1CC(=O)N(c2cccc(Cl)c2)C1=O)c1cccs1 (stereo not drawn) the results were KCNQ2 block inactive and KCNQ2 block baseline 0.64.
Screening CC(C)CCN(CCC(C)C)C(=O)Cc1c(O)c2ccccc2[nH]c1=O returned KCNQ2 block inactive and KCNQ2 block baseline 0.01.
COc1cc(C(=O)Nc2cccc(C)c2C)c(Br)c(OC)c1OC was read as KCNQ2 block -7.98* and KCNQ2 block baseline 1.74*.
`CCOC(=O)C1=C(CN2CCN(C(=O)c3ccco3)CC2)NC(=O)NC1c1ccc(Cl)cc1` (stereo not drawn) gave KCNQ2 block inactive and KCNQ2 block baseline 0.03.
Screening COc1ccc(OC)c(NC(=O)CSC2=C(C#N)C(c3ccco3)C3=C(CCCC3=O)N2)c1 (stereo not drawn) returned KCNQ2 block inactive and KCNQ2 block baseline -0.12.
CCOC(=O)N1CCN(c2ncnc3scc(-c4ccccc4)c23)CC1 was read as KCNQ2 block inactive and KCNQ2 block baseline 0.67.
`Cc1ccc(N=C2NC(=O)C(CO)(CO)S2)cc1` gave KCNQ2 block inactive and KCNQ2 block baseline 1.48.
For O=C(c1ccc(F)cc1)C1CCN(C(=O)Nc2ccc(F)cc2F)CC1 the results were KCNQ2 block inactive and KCNQ2 block baseline 1.1.

A draw from above in order of heavy-atom count, descending:
For COc1ccc(C)cc1Nc1n[n+](-c2ccccc2)c(-c2cc([N+](=O)[O-])cc(OC)c2O)s1 the results were KCNQ2 block inactive and KCNQ2 block baseline 3.04.
O=C(NCC(=O)N1CCN(S(=O)(=O)c2ccccc2)CC1)c1ccc2ccccc2c1 was read as KCNQ2 block inactive and KCNQ2 block baseline -1.88.
`CCCCN(CCCNC(=O)C1CCCN(S(=O)(=O)CCC)C1)Cc1ccccc1` (stereo not drawn) gave KCNQ2 block inactive and KCNQ2 block baseline 1.5.
`C#CC(CO)N(CCN(Cc1ccccc1)C(C#C)CO)Cc1ccccc1` (stereo not drawn) gave KCNQ2 block inactive and KCNQ2 block baseline 0.29.
`COCC(C)n1c(SCc2ccc(C(=O)OC)o2)nc2ccccc2c1=O` (stereo not drawn) gave KCNQ2 block inactive and KCNQ2 block baseline 0.77.
CCOC(=O)N1CCN(c2ncnc3scc(-c4ccccc4)c23)CC1 was read as KCNQ2 block inactive and KCNQ2 block baseline 0.67.
Screening C=CCN1C(=O)C(CC(=O)NCC)SC1=Nc1ccccc1CC (stereo not drawn) returned KCNQ2 block inactive and KCNQ2 block baseline 1.56.
Screening CON(c1nc(Cl)nc(N(C)C)n1)S(=O)(=O)c1ccc(C)cc1 returned KCNQ2 block inactive and KCNQ2 block baseline 0.14.
For CN1CCN(C2=C(Cl)C(=O)N(c3ccc(Cl)cc3)C2=O)CC1 the results were KCNQ2 block inactive and KCNQ2 block baseline -0.15.
Screening N#Cc1ccc(OCc2noc(-c3ccsc3)n2)cc1 returned KCNQ2 block inactive and KCNQ2 block baseline 0.49.
`Cc1ccc(N=C2NC(=O)C(CO)(CO)S2)cc1` gave KCNQ2 block inactive and KCNQ2 block baseline 1.48.
O=C1/C(=C/c2cccs2)COc2ccccc21 was read as KCNQ2 block inactive and KCNQ2 block baseline 0.21.
`Nc1nc(Cl)cc(N2CCOCC2)n1` gave KCNQ2 block inactive and KCNQ2 block baseline -0.11.

Additional results follow:
For CCCN(CCC)CCNc1c(N2CCN(C(=O)OCC)CC2)c(=O)c1=O the results were KCNQ2 block inactive and KCNQ2 block baseline 0.58.
Screening O=C(O)CCc1ccc(-c2ccccc2)n1NC(=O)c1cccs1 returned KCNQ2 block inactive and KCNQ2 block baseline 2.96.
`CCOC(=O)c1cc(C#N)c(Nc2ccccc2OC)nc1C(F)(F)F` gave KCNQ2 block inactive and KCNQ2 block baseline 0.58.
For COc1cc(OC)cc(C(=O)NC2CC3CCC(C2)N3Cc2ccco2)c1 (stereo not drawn) the results were KCNQ2 block inactive and KCNQ2 block baseline 0.77.
Screening Cc1cc(C)n(CC(O)COc2ccc(C(C)(C)C)cc2)n1 (stereo not drawn) returned KCNQ2 block inactive and KCNQ2 block baseline -1.37.
Screening Cc1ccc(S(=O)(=O)N2C(=O)CCC2C(=O)O/N=C(\N)c2ccc([N+](=O)[O-])cc2)cc1 (stereo not drawn) returned KCNQ2 block inactive and KCNQ2 block baseline 0.33.
For COc1ccc(-c2cc(C(=O)Nc3cccnc3Cl)no2)cc1 the results were KCNQ2 block inactive and KCNQ2 block baseline -0.25.
`CCN1CCN(c2ccc(NC(=O)c3cc(OC)c(OC)c(OC)c3)cc2)CC1` gave KCNQ2 block inactive and KCNQ2 block baseline 0.24.
Screening CCn1c(SCc2nc3ccccc3s2)nc2cc(S(=O)(=O)N3CCOCC3)ccc21 returned KCNQ2 block inactive and KCNQ2 block baseline 0.92.
COc1cccc(CN2CCNC(=O)C2CC(=O)NCCn2nc(C)cc2C)c1OC (stereo not drawn) was read as KCNQ2 block inactive and KCNQ2 block baseline -1.47.
Screening COC(=O)c1cn(-c2ccc(Cl)cc2)c(=O)c2ccccc12 returned KCNQ2 block inactive and KCNQ2 block baseline -1.51.
CCS(=O)(=O)Nc1ccc(C2=NN(C(=O)c3ccco3)C(c3cccs3)C2)cc1 (stereo not drawn) was read as KCNQ2 block inactive and KCNQ2 block baseline -0.14.
For N/C(=N\OC(=O)CCCc1ccccc1)c1ccccn1 the results were KCNQ2 block inactive and KCNQ2 block baseline 1.15.
For CC[C@H]1c2[nH]c3ccccc3c2C[C@H]2C(=O)N(c3ccc(F)cc3)C(=O)N21 the results were KCNQ2 block inactive and KCNQ2 block baseline -1.13.
Screening Cn1c(N)c(S(=O)(=O)N2CCN(c3cccc(Cl)c3)CC2)c(=O)n(C)c1=O returned KCNQ2 block inactive and KCNQ2 block baseline 0.26.
For Cc1nn(CC(=O)N/N=C/c2ccc(F)cc2)c(C)c1[N+](=O)[O-] the results were KCNQ2 block inactive and KCNQ2 block baseline -0.4.
`Cc1ccc(C)c(N2CCN(C(=O)c3ccc(CS(=O)(=O)c4ccccc4C)o3)CC2)c1` gave KCNQ2 block -6.49* and KCNQ2 block baseline -0.31*.

Compound activity from PubChem BioAssay.
